Source: PubChem BioAssay
INS promoter inh = inhibitors of insulin promoter-driven GFP, primary screen, imaging, TRM-6 cells (human fetal islet line), eGFP reporter, cell count; reporter expression induced with tamoxifen; inhibition, % at 2 µM; hit rate 0.9% among 130,000; AID 1273, 2008;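 active = inhibition above the mean plus 3 SD, with well images judged a real hit on visual review, cut at about 60% in these data, passing the limit was not always enough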
GALR2 agonist = GALR2 receptor agonists, primary screen, cell-based | Galanin receptor type 2 (Homo sapiens), O43603 | AID 803, 2007 | hit rate 0.48% among 140,000 | GALR2-expressing cells, agonist activation read-out | activation, %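 (tested at 5 µM)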;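 active = above mean plus 3 SD of all compounds, about 5% in these data, not always enough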;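 note: 0% = vehicle buffer wells and 100% = reference agonist at full effect; tested in CHO reporter cells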
PKD1 inh = inhibitors of human PKD1 kinase, biochemical, fluorescence polarization. AID 797, 2007. hit rate 0.056% among 200,000. inhibition, %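 (about 10 µM by stock and volumes)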. Serine/threonine-protein kinase D1 (Homo sapiens), Q15139. PKD1 kinase fluorescence polarization assay;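 active = inhibition of 50% or more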;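 note: controls were vehicle for no effect and a reference inhibitor for full effect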
Target sequence (Q15139 whole entry, looked up): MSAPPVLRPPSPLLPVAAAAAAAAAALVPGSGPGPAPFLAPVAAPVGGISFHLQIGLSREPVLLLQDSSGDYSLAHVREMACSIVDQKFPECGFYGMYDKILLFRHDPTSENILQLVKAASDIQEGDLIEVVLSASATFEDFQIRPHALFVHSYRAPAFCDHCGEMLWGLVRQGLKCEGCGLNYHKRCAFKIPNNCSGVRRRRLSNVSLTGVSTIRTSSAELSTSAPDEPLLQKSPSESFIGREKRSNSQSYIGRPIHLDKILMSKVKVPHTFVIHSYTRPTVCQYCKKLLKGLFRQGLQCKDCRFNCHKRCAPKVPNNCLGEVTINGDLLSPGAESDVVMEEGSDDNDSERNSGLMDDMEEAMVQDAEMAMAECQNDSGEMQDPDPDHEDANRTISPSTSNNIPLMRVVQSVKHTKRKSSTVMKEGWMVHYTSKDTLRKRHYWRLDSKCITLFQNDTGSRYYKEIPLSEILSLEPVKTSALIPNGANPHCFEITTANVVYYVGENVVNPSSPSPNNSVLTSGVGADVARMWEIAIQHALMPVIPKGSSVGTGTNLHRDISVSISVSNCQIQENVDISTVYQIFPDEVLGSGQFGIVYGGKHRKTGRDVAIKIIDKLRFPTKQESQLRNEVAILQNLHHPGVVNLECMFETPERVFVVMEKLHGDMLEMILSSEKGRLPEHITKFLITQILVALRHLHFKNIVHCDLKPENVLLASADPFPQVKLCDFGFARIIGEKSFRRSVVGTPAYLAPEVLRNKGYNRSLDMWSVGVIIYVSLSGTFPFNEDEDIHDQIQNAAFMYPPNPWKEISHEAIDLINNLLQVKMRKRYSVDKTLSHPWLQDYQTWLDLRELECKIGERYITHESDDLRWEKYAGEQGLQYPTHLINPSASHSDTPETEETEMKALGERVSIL
RGS16-Gao = modulators of RGS16 binding to Galphao, primary screen, biochemical, human proteins, multiplexed bead flow cytometry | Regulator of G-protein signaling 16 (Homo sapiens) + Guanine nucleotide-binding protein … | bead-based flow cytometry RGS16-Galphao binding, fluorescence; actives lie on both sides | binding response (% of control), % at 10 µM | hit rate 0.38% among 220,000 | AID 1441, 2008;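 active = below 25% or above 175%, edge rows of some plates excepted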;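 note: Galphao activated by GDP with aluminum fluoride before binding; 100% = wells without compound and 0% = beads without RGS; some results beyond the cut were filed as inactive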
HSV augment = enhancers of HSV replication in host cells, fold increase, host cell viability; maximum fold increase; AID 1956, 2009; HSV replication augmentation in cells; hit rate 0.005% among 220,000;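 active = peak rise of 1.5-fold or more in the series; tested in PC3 cells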;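 note: first round at 10 µM; read as green reporter fluorescence; hits show the peak of a series up to 25 µM; 1 = signal of infected wells without compound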
INS promoter inh cell count = also measured in INS promoter inh; calls as there; normalized cell count, %; measured here: cell count, toxicity; reference of the scale not given here;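 cells exposed to compound for 48 h; stained nuclei by imaging scaled within each plate; lower means fewer cells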
HSV augment primary fold = second read-out of HSV augment, no call of its own (marks repeat the call); fold increase; compound at 10 µM; measured here: primary screen fold increase 10 uM; tested in PC3 cells;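 GFP signal in the first replicate; 1 = infected wells without compound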
Numbers without * were called inactive; i = inactive; / = not tested or not shown. Random draw from the library. About 1.3% of those tested had a hit in this group.

Every second line gives: INS promoter inh	INS promoter inh cell count	GALR2 agonist	PKD1 inh	RGS16-Gao	HSV augment	HSV augment primary fold
(1) COc1ccc(OC)c(C(=O)CSc2nc3ccccc3n2CC(=O)NC(C)(C)C)c1
 : 4	101	-4.1	0	111	i	0.97
(2) CCOc1ccccc1C1CC(=O)Nc2cc(OC)c(OC)c(OC)c21 (centres undefined)
 : 8	147	-1.0	1	100	i	0.94
(3) COc1ccccc1Oc1cc(C#N)c(C#N)cc1-n1nnc2ccccc21
 : -6	110	1.0	3	91	/	/
(4) Cc1cc(C)c(NC(=O)/C(=C/c2ccco2)c2ccccc2)c(C)c1
 : -17	42	-0.6	1	102	i	0.97
(5) Cc1cc(-c2ccccc2)c2nncn2n1
 : 22	89	-0.8	-2	96	i	0.94
(6) COC(=O)CN(c1ccc(F)cc1)S(=O)(=O)c1ccc2c(c1)OCCO2
 : /	/	-0.6	2	102	i	1.1
(7) CCCc1nc2ccccc2c(C(=O)OCC(=O)Nc2c(C)n(C)n(-c3ccccc3)c2=O)c1CC
 : /	/	0.6	-8	107	i	0.96
(8) CCOC(=O)C1=C(C)OC(N)=C(C#N)C1c1ccoc1 (centres undefined)
 : /	/	-1.3	9	111	i	0.85
(9) c1ccc(CCNc2nc(-c3ccncc3)nc3ccccc23)cc1
 : /	/	/	/	98	i	0.68
(10) CN(C)/C=C/C(=O)c1ccncc1
 : /	/	/	-12	103	i	0.97
(11) CCNC(=S)N(Cc1cc2c(C)ccc(C)c2[nH]c1=O)C1CCCC1
 : 0	110	/	-5	118	i	0.86
(12) CC1CCC/C(=C\Nc2ccc(C(=O)O)c(O)c2)C1=O (centres undefined)
 : /	/	/	/	104	i	1.3
(13) O=C(CNS(=O)(=O)c1ccc2ccccc2c1)OCc1nnc(-c2ccccc2)o1
 : /	/	-1.7	-7	114	i	1.1
(14) CCOC(=O)c1sc(=S)n(-c2ccccc2)c1N
 : 22	102	-2.4	-8	101	i	0.87
(15) Cc1nnc(Sc2nc3c(c(=O)[nH]c(=O)n3C)n2CCCc2ccccc2)s1
 : /	/	-3.2	4	105	i	0.92
(16) CCO/C=C1/C(=O)N(C(C)=O)c2ccccc21
 : 18	158	-1.4	0	/	i	0.93
(17) COCCSc1ccccc1C(=O)N1CCOCC1
 : 14	134	-3.0	-2	76	i	1
(18) Cc1nc2sc(C(N)=O)c(N)c2c2c1CCCC2
 : /	/	/	/	105	i	1
(19) COc1ccc(C2(C(=O)NCc3ccco3)CCCC2)cc1OC
 : 3	96	-1.4	-1	98	i	0.98
(20) CCCCC(O)CN1CCC(c2ccccc2)CC1 (centres undefined)
 : 29	122	-3.1	3	98	i	0.96

Reformatted as a markdown table: part of the list above
| cpd | structure | INS promoter inh | INS promoter inh cell count | GALR2 agonist | PKD1 inh | RGS16-Gao | HSV augment | HSV augment primary fold |
| --- | --- | --- | --- | --- | --- | --- | --- | --- |
| 9 | c1ccc(CCNc2nc(-c3ccncc3)nc3ccccc23)cc1 | / | / | / | / | 98 | i | 0.68 |
| 10 | CN(C)/C=C/C(=O)c1ccncc1 | / | / | / | -12 | 103 | i | 0.97 |
| 11 | CCNC(=S)N(Cc1cc2c(C)ccc(C)c2[nH]c1=O)C1CCCC1 | 0 | 110 | / | -5 | 118 | i | 0.86 |
| 12 | CC1CCC/C(=C\Nc2ccc(C(=O)O)c(O)c2)C1=O (centres undefined) | / | / | / | / | 104 | i | 1.3 |
| 13 | O=C(CNS(=O)(=O)c1ccc2ccccc2c1)OCc1nnc(-c2ccccc2)o1 | / | / | -1.7 | -7 | 114 | i | 1.1 |
| 14 | CCOC(=O)c1sc(=S)n(-c2ccccc2)c1N | 22 | 102 | -2.4 | -8 | 101 | i | 0.87 |
| 15 | Cc1nnc(Sc2nc3c(c(=O)[nH]c(=O)n3C)n2CCCc2ccccc2)s1 | / | / | -3.2 | 4 | 105 | i | 0.92 |

(list continues)
Every second line gives: INS promoter inh	INS promoter inh cell count	GALR2 agonist	PKD1 inh	RGS16-Gao	HSV augment	HSV augment primary fold
(21) O=C1NCCCc2nonc21
 : -38	114	-1.1	-3	100	i	1.1
(22) COc1cccc(CNC(=O)C2CCCN(c3nc4ccccc4o3)C2)c1 (centres undefined)
 : /	/	-5.2	-10	105	i	0.99
(23) CSc1nn(-c2ccc(C(=O)OCC(=O)NC(=O)NC(C)C)cc2)c(=S)s1
 : 33	90	-1.7	-1	74	i	1.1
(24) CC1CN(C(=O)Nc2ccc(Br)cc2Cl)CC(C)O1 (centres undefined)
 : -32	114	/	-9	95	i	1.1
(25) COc1ccc(N2CCN(C(=O)Cn3cnc4c3c(=O)n(C)c(=O)n4C)CC2)cc1
 : -27	76	/	3	111	i	0.87
(26) O=[N+]([O-])c1ccc(Sc2ccccc2)nc1
 : 17	114	0.7	10	106	/	/
(27) CCN(c1ccccc1)S(=O)(=O)c1ccc(C(=O)NCCCn2ccnc2)cc1
 : -9	125	/	-11	124	i	0.9
(28) Cc1ccc(C(=O)C(c2ccccc2)N2Cc3ccccc3C2=N)cc1 (centres undefined)
 : 55	89	-0.1	1	77	i	0.92
(29) CC1C/C(=C/c2cccn2C)C(=O)/C(=C/c2cccn2C)C1 (centres undefined)
 : -92	159	0.6	-14	84	/	/
(30) COc1ccc(/C(C)=N/Nc2cccc(C(=O)O)c2)cc1OC
 : /	/	/	-6	102	i	1
(31) Cc1onc(-c2ccccc2)c1C(=O)Nc1nnc(N2CCCCCC2)s1
 : 14	39	0.8	10	98	i	0.9
(32) CN1CCN(c2ccc(NC(=O)c3ccc4c(c3)OCCO4)cc2Cl)CC1
 : /	/	/	-4	110	i	0.84
(33) CCn1cc(/C=C2/SC(=S)NC2=O)c(C)n1
 : 14	100	-0.8	-7	107	i	1
(34) Cc1c(NC(=O)CC2NC(=O)NC2=O)c(=O)n(-c2ccccc2)n1C (centres undefined)
 : 17	66	/	-2	76	i	0.97
(35) Cc1nn(C)c(=O)n1-c1ccc(OCc2ccccc2)cc1
 : /	/	-1.7	-9	103	i	0.73
(36) Nc1ccc(Sc2ccccc2CC(=O)O)cc1
 : 50	78	-1.9	3	101	i	0.94
(37) CC(=O)N1CCc2cc(S(=O)(=O)NCCC(=O)NCCc3ccc(C)cc3)ccc21
 : /	/	-1.5	-10	100	i	1
(38) CCCC12C(=O)C(C)(C(c3ccccc3)=C1c1ccccc1)C1C(=O)N(c3ccc(C)cc3)C(=O)C12 (centres undefined)
 : -38	85	-1.2	-4	55	i	1
(39) CN(C)S(=O)(=O)c1cccc(-c2nnc3n2CCCCC3)c1
 : /	/	/	/	101	i	0.97
(40) COc1cc(/C=N/NC(=O)c2ccc(CN3C(=O)c4cccc5cccc3c45)cc2)cc(OC)c1O
 : /	/	/	/	106	i	0.83
(41) COc1ccc(NC(=O)C(Cc2ccccc2)NC(=O)c2ccco2)cc1OC (centres undefined)
 : 42	83	0.0	2	115	i	0.84
(42) CCOc1ccc(NC(=O)Cc2ccccc2)c([N+](=O)[O-])c1
 : /	/	-1.5	-9	100	i	1.1
(43) Cc1ccc(S(=O)(=O)N2CCCCC2)cc1NC(=O)CSc1nncn1-c1ccccc1
 : /	/	/	-3	102	i	0.98
(44) Cn1c(=O)n(CC(=O)Nc2ccccc2)c2ccccc21
 : /	/	-1.6	-9	101	i	0.96
(45) CC(C)O/N=C1\C(=O)N(c2ccccc2)c2ccccc21
 : 19	126	/	-5	101	i	1
(46) Cn1c(N)c(C(=O)COC(=O)c2cc(-c3ccco3)nc3ccccc23)c(=O)n(Cc2ccccc2)c1=O
 : -19	132	-0.1	-8	90	/	/
(47) CCOC(=O)C1CCCN(C(=O)c2sc3nc(-c4ccc(F)cc4)cn3c2C)C1 (centres undefined)
 : 43	83	0.1	5	106	/	/
(48) CC(C)(C)c1ccc(-c2nn(CCC#N)cc2/C=N/O)cc1
 : 0	74	/	4	57	i	0.77
(49) CCOC(=O)Cc1csc(NC(=O)c2sc3nc4cc(C)ccc4cc3c2N)n1
 : -3	124	-1.1	9	117	i	1
(50) CC(CN1CCOCC1)OC(=O)C(C)(c1ccccc1)c1ccccc1 (centres undefined)
 : -69	83	-1.1	1	112	i	1
(51) CN(C(=O)Cc1c[nH]c2ccccc12)C(C(=O)Nc1ccc2c(c1)OCO2)c1ccccc1 (centres undefined)
 : 20	88	0.6	-4	95	i	0.99
(52) COc1ccc(Cc2nnc(NC(=O)c3ccccc3[N+](=O)[O-])s2)cc1
 : 53	86	/	7	103	i	1.1
(53) COc1cc(-c2nnc(CSc3nnc(N)s3)o2)cc(OC)c1OC
 : 9	53	-1.9	1	123	i	1
(54) Cn1cc(CCNCc2cn[nH]c2-c2ccc(-c3ccccc3)cc2)cn1
 : /	/	/	/	103	i	0.83
(55) CCOC(=O)Nc1ccc2c(c1)N(C(=O)CN(CC)CC)c1ccccc1C=C2
 : 13	58	-0.9	-18	96	i	0.93
(56) COc1ccc(CCNC(=O)CS(=O)Cc2nc(-c3cccs3)oc2C)cc1OC (centres undefined)
 : 31	185	-1.0	-10	76	i	0.96
(57) CCOc1ccc(-n2c(SCC)nc3c(c2=O)SCC3)cc1
 : 0	95	-1.0	-11	100	i	0.96
(58) Cc1cc(=O)[nH]c(SCC(N)=O)c1C#N
 : /	/	-0.7	-5	99	i	0.84
(59) CC(=O)N1c2ccccc2N(Cc2ccc(C)cc2C)C(=O)C1(C)C
 : /	/	/	9	105	i	0.56
(60) O=C(c1ccccc1)N1CCN(c2ncnc3c(-c4ccccc4)nsc23)CC1
 : -23	89	/	-8	70	i	1

A draw from above in order of heavy-atom count, falling.
Every second line gives: INS promoter inh	INS promoter inh cell count	GALR2 agonist	PKD1 inh	RGS16-Gao	HSV augment	HSV augment primary fold
(46) Cn1c(N)c(C(=O)COC(=O)c2cc(-c3ccco3)nc3ccccc23)c(=O)n(Cc2ccccc2)c1=O
 : -19	132	-0.1	-8	90	/	/
(50) CC(CN1CCOCC1)OC(=O)C(C)(c1ccccc1)c1ccccc1 (centres undefined)
 : -69	83	-1.1	1	112	i	1
(48) CC(C)(C)c1ccc(-c2nn(CCC#N)cc2/C=N/O)cc1
 : 0	74	/	4	57	i	0.77
(44) Cn1c(=O)n(CC(=O)Nc2ccccc2)c2ccccc21
 : /	/	-1.6	-9	101	i	0.96

Other results follow:
Every second line gives: INS promoter inh	INS promoter inh cell count	GALR2 agonist	PKD1 inh	RGS16-Gao	HSV augment	HSV augment primary fold
(61) Cc1sc(NC(=O)Cn2nc(C(F)(F)F)cc2C)c(C(=O)OC(C)C)c1C
 : 30	80	-2.8	0	79	i	0.91
(62) COc1ccc(C2N=C(c3ccccc3)NC(c3ccccc3)=N2)cc1
 : 0	62	-1.6	-13	105	i	0.78
(63) CC1(C)NC(=O)N(CCOCCSc2ccccc2)C1=O
 : -82	89	-1.3	1	103	i	0.8
(64) CCOC(=O)C(=CNc1ccc(Cl)cn1)C(=O)OCC
 : /	/	/	/	103	i	0.9

Just GALR2 agonist, for some of the entries so far:
entry	smiles	GALR2 agonist
2	CCOc1ccccc1C1CC(=O)Nc2cc(OC)c(OC)c(OC)c21 (centres undefined)	-1.0
3	COc1ccccc1Oc1cc(C#N)c(C#N)cc1-n1nnc2ccccc21	1.0
4	Cc1cc(C)c(NC(=O)/C(=C/c2ccco2)c2ccccc2)c(C)c1	-0.6
